Screens (PubChem)
NPYLR7 agonist – mosquito NPYLR7 agonism; activation, % at 10 µM; 270,000 tested, 0.15% active; HEK293T NPYLR7/Galpha15, GCaMP6s calcium fluorescence; in the data active means activation above about 40%;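 further: 0% = vehicle and 100% = reference agonist at the receptor; some compounds past the cut are filed as inactive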
NPYLR7 agonist max-min – further read-out of NPYLR7 agonist, marked with its call; activation, %; measured here: Max-Min RFU normalised activation; some inactives read as strong as hits;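 span of the calcium signal over five minutes; 0% = vehicle and 100% = native peptide agonist; compound fluorescence can raise it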
The depositor's hits bear a star; & = joins results of further samples. A portion of the library; rates above refer to the full screens.

SMILES | NPYLR7 agonist | NPYLR7 agonist max-min
Cn1c(N)c(C(=O)CSc2nnc(NC3CCCCC3)s2)c(=O)n(C)c1=O | 5.5 | 4.8
COc1cccc(C2=NC(=Cc3cc4ccccc4nc3N3CCOCC3)C(=O)O2)c1 | 2.8 | 13.4
c1ccc2c(c1)CCN2CCNC1CCSC1 (centres undefined) | -0.2 | -6.7
CCn1c(=O)n(CC(O)c2ccc(F)cc2F)c2ccccc21 (centres undefined) | 2.8 | 1.1
Cc1ccc(C2(O)CCN(c3nc(-c4cccc(C)c4)ccc3C(=O)O)CC2)nc1 | 0.2 | 5.6
CO[C@H](Cc1ccccc1O)[C@@H](O)c1ccccc1 | 10.5 | 4.4
CNC(=O)C1CN(C(=O)Cc2ccc(OC)cc2)c2ccccc2O1 (centres undefined) | 6.3 | -0.5
O=C(NC1CCN(Cn2ncc3ccccc3c2=O)CC1)c1ccccc1 | 13.4 | 5.8
CC1=C(C#N)C(c2c(C)[nH]n(-c3ccccc3)c2=O)(C(F)(F)F)C(=O)N1 (centres undefined) | 0.5 | -1.1
CN1CCC/C1=C1/C(=O)N(c2ccccc2)N=C1NC(=O)Nc1cccc(Cl)c1 | 24.4 | 6.0
CC(=O)NCC(=O)N1CCC(n2nc(C(C)C)cc2C(C)C)CC1 | 16.4 | 3.0
Cc1ccccc1N1CCN(Cc2ccc(F)cc2F)C(C)C1=O (centres undefined) | 11.0 | 14.9
COc1cc2c(cc1OC)C1CN(C(=O)Nc3cccc(C)c3C)CC(=O)N1CC2 (centres undefined) | -4.4 | 10.2
CC(=O)NN1C(=O)/C(=C\C=C\c2ccccc2)SC1=S | -3.6 | -7.0
COC(=O)c1ccc(NC(=O)CSc2cn(CC(=O)N3CCCC3)c3ccccc23)cc1 | -4.4 | -9.7
O=S(=O)(Nc1ccncc1)c1ccc(Br)c(F)c1 | -19.1 | -22.2
O=S(=O)(Nc1ccc2c(c1)OC1(CCCC1)O2)c1cccs1 | 7.7&8.2 | 6.1&8.2
CCOC(=O)CNC(=O)CCc1cc2c(n1-c1ccc(C)cc1F)-c1ccccc1OC2 | 1.8 | -1.0
Cc1c(C)c(C)c(S(=O)(=O)N2CCNC(=O)C2)c(C)c1C | 10.6&2.2 | 3.2&-2.5
CC(C)(C)OC(=O)Nc1ccc(CC(=O)N2CCN(C(=O)c3ccoc3)CC2)cc1 | 6.0 | 3.6
NS(=O)(=O)c1cc2c(cc1Cl)NC(c1ccc(Br)cc1)NS2(=O)=O (centres undefined) | 2.5 | -0.3
COc1ccc(-c2nc(C(N)=O)c3[nH]c(=O)n(-c4ccc(OC)c(OC)c4)c3n2)cc1 | -3.9 | -8.9
O=C(COc1ccc(F)cc1Cl)NC1CCCC(C(F)(F)F)C1 (centres undefined) | 3.0 | 0.2
CC(=O)/C(C)=N\O | -4.9 | -0.1
CCc1c(C(=O)CN2CCN(Cc3noc(C)n3)CC2)[nH]c(C)c1C(C)=O | 0.8 | -3.8
COc1cccc(C(=O)N(Cc2nccn2Cc2ccc(Cl)cc2Cl)CC2CCCO2)c1 (centres undefined) | 6.0 | 15.3
CN(Cc1cccc(Cl)c1Cl)C(=O)CCc1ccc2c(c1)OCO2 | 10.2 | 6.4
CCCn1c(=NC(=O)C2=COCCO2)sc2cc(CC)ccc21 | 1.5 | -1.7
O=C(NCC(c1cccs1)N1CCOCC1)c1ccccc1OCCOc1ccccc1 (centres undefined) | 0.8 | 28.5
Cc1ccccc1CSc1nnc(CNS(=O)(=O)c2ccc(Cl)cc2)n1-c1ccc(Cl)cc1Cl | 2.0 | 15.0
CC1CCC(NC(=O)CS(=O)Cc2ccc(F)cc2Br)CC1 (centres undefined) | 13.0 | 10.1
O=C(Cn1ncn2c(cc3sccc32)c1=O)NC1CC1 | 0.5 | 0.6
Cc1ccsc1[C@@H]1CCN(C(=O)Cn2nnc3ccccc3c2=O)C[C@H]1O | -4.1 | -6.1
CCOC(=O)CNC(=O)CSc1nc(=O)n2cccc(C)c2n1 | 2.7 | -2.4
Cc1ccccc1CON=Cc1cccc([N+](=O)[O-])c1 | -5.4 | -10.4
COc1ccc(Cl)cc1-c1nc(C=Nc2cc(C)on2)c(O)o1 | -12.8 | -19.8
CN1CCN(C(=O)c2ccc(Br)o2)CC1 | 1.7 | 1.2
COc1cc(C)ccc1S(=O)(=O)NC(=O)C1(C)CCN1C(=O)c1ccc(C(F)(F)F)nc1C (centres undefined) | 8.7 | 8.1
Nc1c2c(nc3sc4c(c13)CCCC4)-c1ccccc1CC2 | -2.1 | -4.8
COCC(NCC(=O)Nc1cnccn1)c1ccnn1C (centres undefined) | -6.3 | -11.0
Cc1ccc(C)c2c(N=NC(=O)COc3c(Cl)cc(Cl)cc3Cl)c(O)[nH]c12 | 10.3 | 0.4
CC(Oc1ccc2cc(Br)ccc2c1)C(=O)NC(N)=O (centres undefined) | 3.6 | -0.1
CC(C)(C)Nc1nc(NC(C)(C)C)nc(N2CCN(c3ccc4nnnn4n3)CC2)n1 | 14.4 | 7.3
C=CCn1c(SCc2ccc(C(=O)Nc3ccc(C)c(C)c3)cc2)nnc1-c1ccccc1[N+](=O)[O-] | 27.4 | 34.8
c1ccc(-n2nnnc2SCc2ccccn2)cc1 | -9.6 | -7.6
Cc1csc2nc(O)c(C(=O)NCc3ccc(F)cc3)c(=O)n12 | -1.2 | 44.6
CCn1ccc(C(=O)N(C)CCSc2ccc(C)cc2)n1 | -4.5 | -9.6
Cc1nc2sc3c(c2c(=O)n1-n1cccc1)CCCC3 | 5.8 | 4.3
Cc1cc(NC(=O)c2nn3c(C(F)(F)F)cc(-c4ccc(Br)cc4)nc3c2Cl)no1 | 0.3 | -2.4
CCNC(=O)N(CCN1CCOCC1)CC(=O)N(Cc1ccc(F)cc1)Cc1ccc(C)s1 | -2.9 | 1.0

Of the compounds above, these contain an aryl methoxy group.
SMILES | NPYLR7 agonist | NPYLR7 agonist max-min
COc1cccc(C2=NC(=Cc3cc4ccccc4nc3N3CCOCC3)C(=O)O2)c1 | 2.8 | 13.4
CNC(=O)C1CN(C(=O)Cc2ccc(OC)cc2)c2ccccc2O1 (centres undefined) | 6.3 | -0.5
COc1cc2c(cc1OC)C1CN(C(=O)Nc3cccc(C)c3C)CC(=O)N1CC2 (centres undefined) | -4.4 | 10.2
COc1ccc(-c2nc(C(N)=O)c3[nH]c(=O)n(-c4ccc(OC)c(OC)c4)c3n2)cc1 | -3.9 | -8.9
COc1cccc(C(=O)N(Cc2nccn2Cc2ccc(Cl)cc2Cl)CC2CCCO2)c1 (centres undefined) | 6.0 | 15.3
COc1ccc(Cl)cc1-c1nc(C=Nc2cc(C)on2)c(O)o1 | -12.8 | -19.8
COc1cc(C)ccc1S(=O)(=O)NC(=O)C1(C)CCN1C(=O)c1ccc(C(F)(F)F)nc1C (centres undefined) | 8.7 | 8.1

(next part)
SMILES | NPYLR7 agonist | NPYLR7 agonist max-min
Cc1csc(C2(NC(=O)c3ccc4ccccc4n3)CCCC2)n1 | -1.6 | -0.5
Cc1ccc(CN(CCc2c[nH]c3ccccc23)C(=O)CN(C(=O)c2cccs2)C(C)C)cc1 | 19.4 | 27.4
COc1cccc(CO[C@]2(C(=O)NCCCn3ccnc3)CC(OCc3ccccc3C#N)[C@@H]3OC(C)(C)O[C@@H]3C2)c1 (some centres undefined) | 2.6 | 14.4
COc1ccc2c(c1)CCc1c-2noc1-c1ccc(C)c(NC(=O)c2sccc2C)c1 | 2.4 | -2.5
O=C(C1CCC(=O)N(C2CC2)C1)N1CCC(Cc2ccccc2F)CC1 (centres undefined) | 16.4 | -0.2
Cc1onc(-c2c(Cl)cccc2Cl)c1C(=O)N1CCC(c2nc(-c3ccc(Cl)cc3F)no2)CC1 | 21.4 | 9.1
CC1=Nc2ncnn2C(c2ccco2)C1 (centres undefined) | 1.0 | 3.6
C=CCn1c(O)c(N=NC(=O)CNC(=O)c2ccccc2)c2ccccc21 | -11.5 | -14.8
CCOC(=O)c1cc(C(C)(C)C)n(C2CCN(C(=O)COC)CC2)n1 | 26.2 | 13.9
CCCCC1CN(CCC(=O)NCCc2ccncc2)Cc2ccccc2O1 (centres undefined) | -1.3 | -4.6

Record cards, as listed above. Order of screens: NPYLR7 agonist, NPYLR7 agonist max-min
CC(=O)/C(C)=N\O is listed with -4.9, -0.1
CC1=Nc2ncnn2C(c2ccco2)C1 (centres undefined) is listed with 1.0, 3.6

Next results follow.
SMILES | NPYLR7 agonist | NPYLR7 agonist max-min
CC1CCC(NC(=O)COc2ccc3c(c2)OCO3)CC1 (centres undefined) | 5.9 | 5.6
O=C(NCCN1CCN(c2ccc(F)cc2)CC1)C1(c2ccccc2)CCOCC1 | -7.9 | -12.2
COc1cc2nc(C3CCC3)nc(N3CCC[C@H]3CO)c2cc1OC | 5.2 | 9.0
COc1ccccc1C(=O)C(O)c1ccccc1OC (centres undefined) | -4.5 | -5.0
Cc1nc2scc(C)n2c(=O)c1NC(=O)c1ccc(S(=O)(=O)N2CCCCC2)cc1 | 7.5 | -1.4
Cc1cccc(/C=C/c2ccccc2)n1 | 0.0 | 12.3
COC(=O)[C@@H]1C[C@@H](N(C)C)CN1C(=O)c1cc(C(C)C)oc1C | -4.3 | -4.8
O=C(NC1CCCCC1)c1cc(=O)c(OCc2ccccc2)c[nH]1 | -0.1 | -1.7
CC(Sc1ncccn1)c1nnc(-c2ccc(F)cc2)o1 (centres undefined) | 17.5 | 21.2
O=[N+]([O-])c1cc2c(c(CSc3ncnc4sc5c(c34)CCCC5)c1)OCOC2 | -4.7 | -7.1
CCOc1cc(S(=O)(=O)NC(C)C)ccc1Br | 1.0&-12.2 | 4.3&-18.3
O=c1cc(NCc2ccccc2)c(-c2ccccc2)n[nH]1 | -3.0 | -3.6
CC1(Cc2ccccc2F)C(=O)Nc2ccc(OC(F)(F)F)cc21 (centres undefined) | 1.8 | 2.8
Cc1nccn1-c1ccc(CNC(=O)C(=O)N(C)c2ccccc2)cc1 | 4.2 | 2.6
COc1ccc(C2CNCC2C(=O)NCC2CC2)c(OC)c1 (centres undefined) | 6.1 | 3.2
C/C(Cl)=C/CN1C(=O)C2C3c4ccccc4C([N+](=O)[O-])(c4ccccc43)C2C1=O (centres undefined) | -12.1 | -15.8
O=C(Cn1cnc2c(nnn2-c2ccc(Cl)cc2)c1=O)c1ccc(Cl)cc1 | -0.6 | 0.5
CN1CCc2[nH]nc(C(=O)N3CCC(c4ccccc4Cl)C3)c2C1 (centres undefined) | 4.2 | 2.3
COc1nc(N)nc2c1ncn2C1O[C@H](CO)[C@@H](O)[C@@H]1O (some centres undefined) | 0.8 | 8.9
O=C(Nc1ccc2c(c1)OCCO2)N1CCN(c2ccc(Nc3ccncc3)nn2)CC1 | -4.5 | -7.1
COC(=O)c1ccccc1NC(=O)Cn1ncn2nc(-c3ccc(Cl)cc3)cc2c1=O | -10.5 | -16.0
O=C(NCC1Cc2cc(-c3cccnc3)cc(F)c2O1)C1CCCc2c1[nH]c1ccccc21 (centres undefined) | 9.1 | 7.3
CC(c1nc2c(s1)CCCC2)n1cnc2sc3c(c2c1=O)CCNC3 (centres undefined) | 0.0 | -7.8
CC1CCCC(NC(=O)C(C)(c2ccccc2)N(C)C)C1 (centres undefined) | 10.5&1.7 | 5.6&1.2
Cc1ccc(S(=O)(=O)Nc2ccccc2Sc2nccn2C)c(Cl)c1 | -0.3 | 2.0
COC(=O)c1ccc2c(c1C)NC(c1ccc([N+](=O)[O-])cc1)C1CC=CC21 (centres undefined) | -2.4 | 8.2
CCOn1c(=O)c(-c2ccc(F)cc2)[n+]([O-])c2ccccc21 | -2.8 | -4.1
CN(NC(=O)Cc1csc(-c2ccco2)n1)c1ccccc1 | 13.3 | 7.3
COCCNC(=O)CCN(Cc1ccco1)c1nc(-c2ccco2)nc2ccccc12 | -14.8 | -6.9
CCOC(=O)C(C)n1cnc2c(nnn2-c2cccc(OC)c2)c1=O (centres undefined) | 6.1 | 5.6

Look-ups from above.
Entry for Cc1ccc(S(=O)(=O)Nc2ccccc2Sc2nccn2C)c(Cl)c1 under NPYLR7 agonist max-min: 2.0
Entry for O=C(NCC1Cc2cc(-c3cccnc3)cc(F)c2O1)C1CCCc2c1[nH]c1ccccc21 (centres undefined) under NPYLR7 agonist: 9.1

Structures above that contain a nitro group on carbon (5):
SMILES | NPYLR7 agonist | NPYLR7 agonist max-min
Cc1ccccc1CON=Cc1cccc([N+](=O)[O-])c1 | -5.4 | -10.4
C=CCn1c(SCc2ccc(C(=O)Nc3ccc(C)c(C)c3)cc2)nnc1-c1ccccc1[N+](=O)[O-] | 27.4 | 34.8
O=[N+]([O-])c1cc2c(c(CSc3ncnc4sc5c(c34)CCCC5)c1)OCOC2 | -4.7 | -7.1
C/C(Cl)=C/CN1C(=O)C2C3c4ccccc4C([N+](=O)[O-])(c4ccccc43)C2C1=O (centres undefined) | -12.1 | -15.8
COC(=O)c1ccc2c(c1C)NC(c1ccc([N+](=O)[O-])cc1)C1CC=CC21 (centres undefined) | -2.4 | 8.2

New compounds follow:
SMILES | NPYLR7 agonist | NPYLR7 agonist max-min
Cc1cc(C(=O)Nc2ccc(N3CCCC3)cc2C)on1 | -3.8 | -4.7
Fc1ccccc1OCc1nnc2n1N=C1CCCCC1S2 (centres undefined) | 18.4 | 24.0
Cc1cc(N2CCN(c3cccc(C(F)(F)F)c3)CC2)nc(SCc2ccc(C(=O)NCc3ccncc3)cc2)n1 | 16.1 | 17.1
CCOC(=O)c1ccc(S(=O)(=O)N2CCN(C(=O)c3cccs3)CC2)cc1 | -0.5 | 2.8
Nc1nc(-c2ccc(F)cc2)cs1 | 14.1 | 21.1
